Bioassay records: PubChem BioAssay, ICCB-Longwood Screening Facility, Harvard Medical School
fixLJ activator – increases Burkholderia fixLJ two-component signaling; AID 1918990; 29,000 tested, 0.3% active; B. multivorans fixK-promoter GFP reporter, 18 h; stronger effect = higher value; z-score (no concentration beside the values);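 active = replicate mean overnight rise in green fluorescent reporter signal, 3 or more SD over negative controls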;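 note: score is relative to vehicle wells of the plate; 300 nL library stock went into each well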
Starred values were filed as active, the others as inactive; & = joins results of further samples.

SMILES | fixLJ activator
CC(C)OCCCNC(=O)CCCn1c(SCC(N)=O)nc2c(sc3ccccc32)c1=O | 0.57
O=C(COc1ccccc1)NCc1cc2n(n1)CCN(C(=O)C1CCC1)C2 | 1.4
COc1ccc(C2=NN(S(C)(=O)=O)C(c3cn(-c4ccccc4)nc3-c3cccs3)C2)cc1 (stereo not given) | -1.5
COc1cc(C(=O)N2CCCN(C(=O)Nc3ccccc3)CC2)ccn1 | -0.09
Cc1ccc(Oc2c(C(F)(F)F)oc3c(CN4CCCCC4C)c(O)ccc3c2=O)cc1 (stereo not given) | -0.48
Fc1ccccc1-c1nc(N2CCN(c3cccc(Cl)c3)CC2)c2ccccc2n1 | 0.97
COc1ccc(CNC(=O)Cc2c(C)c3cc4c(C)coc4c(C)c3oc2=O)cc1 | -2.4
N#Cc1cccnc1N1CCC(NC(=O)CN2CCOc3ccccc3C2)CC1 | -0.95
CCc1ccccc1Nc1cc(C(=O)NC(C)c2ccccc2)c2ccccc2n1 (stereo not given) | 0.85
Cc1ccc2nccc(C(=O)N3CCC4OCc5cnnn5C4C3)c2c1 (stereo not given) | -0.28
Cc1ccc(C)c(NC(=O)CCNCC(=O)Nc2cnccn2)c1 | 0.11
COc1ccc(Nc2ncc(C(=O)N3CCN(c4ccc(F)cc4)CC3)c3ccccc23)cc1 | 0.62
COCC(C)n1c(CCCC(=O)N2CCC3(CCCO3)CC2)nc2cccnc21 (stereo not given) | -0.45
Cc1ccccc1-c1nc(CS(=O)(=O)CC(=O)NCCCc2ccccc2)c(C)o1 | -0.15
CCC(c1nc(CC(N)=O)nn1-c1ccccc1C)N1CCCC1 (stereo not given) | 0.04
CC1(C)O[C@H]2[C@@H](O1)[C@@H](C(=O)Nc1ccccc1C(F)(F)F)O[C@@H]1OC(C)(C)O[C@@H]12 | -2
CC(C)c1ccc(C#N)c(N2CCN(c3ccccc3)C(=O)C2)n1 | -0.16
CNc1nc2c(c(C(=O)N3CCCC3)n1)CN(c1cc(C)c3ccccc3n1)CC2 | -0.15
Cc1nc2nncn2c(Nc2ccccc2)c1C | -1.6
O=C(c1ncccc1O)N1CCN(Cc2ccccc2)C2CS(=O)(=O)CC21 (stereo not given) | 0.1
Cc1[nH]c2ccc(F)cc2c1CC(=O)N1CCC(c2cc(=O)[nH]cn2)CC1 | -1.1
CCOC(=O)c1ccc(NC(=O)CC2Nc3cc(C)c(C)cc3NC2=O)cc1 (stereo not given) | -0.81
Cc1ccc(C)c(NC(=O)CCc2nc3cccnc3n2Cc2cccs2)c1 | -1.3
Cc1nccn1C(C)CC(=O)NCCc1cnn(-c2ccccc2)c1 (stereo not given) | -1.3
Cc1ccc(CNC(=O)Cn2c(=O)n(-c3cccc(Cl)c3)c(=O)c3sc4ccccc4c32)cc1 | -0.49
CCc1ccc(-n2c(=O)c3c(C)c(C)sc3n(CC(=O)NCc3ccc(C)cc3)c2=O)cc1 | 1
COc1ccccc1NC(=O)c1oc2ccccc2c1NC(=O)COc1ccccc1OC | 0.18
COc1ccc(S(=O)(=O)c2c(O)c(C)cc(NS(=O)(=O)c3ccc(Cl)cc3)c2C(C)C)cc1 | -1.6
Cc1ccc(-n2nc(C(=O)Nc3cccc(C#N)c3)c3c4ccccc4n(C)c3c2=O)cc1 | 2.3
Cc1cccc(NC(=O)Cn2nc(-c3ccc(Cl)cc3)c3ccccc3c2=O)c1 | 0.12
Cc1cccc(CC(=O)N2CC3CCC2CN(C(=O)c2cnccn2)C3)c1 (stereo not given) | 0.89
CCOc1ccc(-n2c(SCC(=O)Nc3ccccc3OC)nc3c(oc4ccccc43)c2=O)cc1 | -1.1
CCc1ccc(NC(=O)Cn2c(=O)n(CCCCC(=O)NCc3ccc4c(c3)OCO4)c(=O)c3ccccc32)cc1 | -1.9
CCC(=O)N1CCc2cc(Br)cc(S(=O)(=O)CCC(=O)N(C)c3cccc(C)c3)c21 | 0.06
COc1ccc2[nH]cc(CCNC(=O)Cc3cc(C)nc(C)c3)c2c1 | -0.47
CC(=O)c1c(C)nn(C(C)CC(=O)N2CCSCC2)c1C (stereo not given) | -0.87
O=C(c1ccco1)c1cn(CCOc2ccc(F)cc2)c2ccccc12 | 1.3
Cc1onc(-c2c(F)cccc2Cl)c1C(=O)Nc1ccc(OC(C)C)cc1 | -1.1
CN1CCc2[nH]cnc2C12CCN(C(=O)c1ccc(C(F)(F)F)cc1)CC2 | -0.71
COc1ccc(C)cc1C(=O)N1CC(O)C(Cc2cc(C)[nH]n2)C1 (stereo not given) | 0.11
COc1ccc(NC(=O)CSc2nc3ncccc3[nH]2)c(OC)c1 | 1.4
COc1ccc2c(c1)[nH]c1c(C)nccc12 | -1.9
Cc1cc(C)cc(NC(=O)CCc2c(C)nc3c(c2C)c(=O)n(C)c(=O)n3C)c1 | -0.48
COc1ccc(S(=O)(=O)NC2COCC2Cc2ccncc2)cc1C(C)C (stereo not given) | -0.31
O=C(NCCCn1ccc2ccccc21)N1CCN(c2ncn[nH]2)CC1 | -0.59
CCOc1ccc(C(=O)c2c(N)c(-c3nc(-c4ccc(OCC)cc4)cs3)c3ccccn23)cc1 | -1.1
C=C(C)COc1cccc(C(=O)NCCc2nncn2CC)c1 | -1.2
O=C(CCn1c(=O)c2ccccc2n(Cc2cccc(F)c2)c1=O)NCc1ccc2c(c1)OCO2 | -0.75
Cc1c(C(=O)N2CC[C@@]3(C(=O)O)CCCN(C)[C@@H]3C2)[nH]c2ccc(F)cc12 | 0.54
CC(=O)Nc1ccc(OCC(O)CNC(C)C)cc1 (stereo not given) | -0.94
CC(C)(C)n1ccc(C(=O)N2CCCC(c3ncc[nH]3)C2)c1 (stereo not given) | -0.18
O=C(Cn1cc(C(=O)C2CC2)c2ccccc21)Nc1ccc(Br)cc1 | -0.53
CC(C)Cc1cc(C(=O)N2CCCN(S(=O)(=O)N3CCCC3)CC2)nc(N)n1 | 0.12
COc1c[nH]c(CN(C)Cc2nc3ccc(Cl)cc3[nH]2)cc1=O | 0.49
CCc1cccc(NC(=O)CCC(=O)NCc2ccc3nc[nH]c3c2)c1 | -0.27
Cc1cc(C)c2c(=O)c3c(oc2c1)C(=O)N(Cc1ccco1)C3c1ccccc1F (stereo not given) | 1.4
C[C@H](C(=O)O)c1cccc(C(=O)c2ccccc2)c1 | -1.3
CCN1Cc2nc(OC)c(CNC(=O)C(O)c3ccccc3)cc2C1=O (stereo not given) | -0.65
COc1ccc(NC(=O)N2CC(Oc3ccccc3OC)C2)c(C)c1 | 0.36
COc1cccc(-n2c(-c3ccco3)nc3c(cnn3-c3ccc(Cl)cc3)c2=O)c1 | -0.71

Looked up one by one from the list above:
SMILES | fixLJ activator
O=C(NCCCn1ccc2ccccc21)N1CCN(c2ncn[nH]2)CC1 | -0.59
C[C@H](C(=O)O)c1cccc(C(=O)c2ccccc2)c1 | -1.3
COc1ccc(S(=O)(=O)NC2COCC2Cc2ccncc2)cc1C(C)C (stereo not given) | -0.31
C=C(C)COc1cccc(C(=O)NCCc2nncn2CC)c1 | -1.2

The listing picks up; the four compounds before the break are reprinted first.
SMILES | fixLJ activator
C[C@H](C(=O)O)c1cccc(C(=O)c2ccccc2)c1 | -1.3
CCN1Cc2nc(OC)c(CNC(=O)C(O)c3ccccc3)cc2C1=O (stereo not given) | -0.65
COc1ccc(NC(=O)N2CC(Oc3ccccc3OC)C2)c(C)c1 | 0.36
COc1cccc(-n2c(-c3ccco3)nc3c(cnn3-c3ccc(Cl)cc3)c2=O)c1 | -0.71
Cc1cc(CN2CCOC3(CCN(C(=O)CC4C=CCC4)CC3)C2)on1 (stereo not given) | -1.5
COCCCNC(=O)c1sc2nc(C)c(C(=O)Nc3ccc(Cl)cc3)c(-c3ccc(Br)cc3)c2c1N | 1.8
CCc1nn(C)cc1-c1cccc(C(=O)N(C)Cc2ccoc2)c1 | 0.61
Cc1ccc(Cl)cc1N1CCN(CCNC(=O)Nc2ccc(Cl)cc2)CC1 | -1.5
COCC(=O)N1CCC(C(=O)N2CCN(c3ccc(C(C)=O)cc3)CC2)CC1 | -1.1
Cc1ccc(S(=O)(=O)Nc2cc3c(cc2N2CCOCC2)n(C)c(=O)n3C)cc1 | -0.83
COC(=O)c1cc2sccc2n1Cc1nc(-c2ccc(Cl)cc2)oc1C | -0.97
CCOc1ccccc1CN1CCn2nc(CNC(=O)N(C)C)cc2C1 | -0.04
CCOc1ccc(-c2cc3c(=O)n(Cc4nc(-c5ccc(OC)cc5OC)oc4C)ccn3n2)cc1Cl | -0.67
COc1cccc(-c2cc(C(=O)NCc3nnc(C)o3)[nH]n2)c1 | -0.88
COc1ccc(-c2nc(S(=O)(=O)c3ccccc3)c(N3CCCCC3)o2)cc1 | -0.09
c1ccc(C2CC2)c(OCC2=NCCN2)c1 | -1.4
Cc1cc(C)cc(NC(=O)CSc2oc(-c3cccs3)nc2S(=O)(=O)c2ccccc2)c1 | -0.98
Cc1ccc(-n2c(=O)c3ccc(C(=O)NCc4ccccc4Cl)cc3n(Cc3cccc(F)c3)c2=O)cc1 | -0.35
CCOC(=O)c1ccc(NC(=O)CN(c2ccc(C)cc2)S(=O)(=O)c2ccc(OC)cc2)cc1 | 1.3
CCOC(=O)C(C)Nc1ncnc2onc(C)c12 (stereo not given) | -0.2
Cn1c2c(c(=O)n(C)c1=O)C(c1cc(Br)ccc1F)CC(=O)N2 (stereo not given) | -1.3
COc1ccc(C)cc1N(C)C(=O)CCc1nc(-c2ccccc2F)no1 | -0.29
CC(C)(C)NC(=O)CSc1nc(-c2ccc(F)cc2)cc(C(F)(F)F)n1 | -1.6
COc1cc(OC)c(NC(=O)Nc2sc3nc4n(c(=O)c3c2C)CCC(C)CC4)cc1Cl (stereo not given) | -2.3

Molecules above with a CF3 group, in the order listed:
SMILES | fixLJ activator
Cc1ccc(Oc2c(C(F)(F)F)oc3c(CN4CCCCC4C)c(O)ccc3c2=O)cc1 (stereo not given) | -0.48
CC1(C)O[C@H]2[C@@H](O1)[C@@H](C(=O)Nc1ccccc1C(F)(F)F)O[C@@H]1OC(C)(C)O[C@@H]12 | -2
CN1CCc2[nH]cnc2C12CCN(C(=O)c1ccc(C(F)(F)F)cc1)CC2 | -0.71
CC(C)(C)NC(=O)CSc1nc(-c2ccc(F)cc2)cc(C(F)(F)F)n1 | -1.6

Further entries follow.
SMILES | fixLJ activator
CC(=O)NC(C)CC(=O)Nc1ccc(C(=O)OC2CCCC2)cc1 (stereo not given) | -0.38
Cc1cccc(-c2nc(SCC(=O)Nc3ccc4c(c3)OCCO4)c(-c3ccccc3)[nH]2)c1 | 0.91
COc1cccc(N2CCN(Cc3cc(=O)oc4cc(C)ccc34)CC2)c1 | -1.2
Cc1cc(C)c(C(=O)N2CCCC(CCC(N)=O)C2)c(=O)[nH]1 (stereo not given) | -0.96
CC(C)Cc1cc(CN2CCN(C(=O)C(C)C)C3CS(=O)(=O)CC32)[nH]n1 (stereo not given) | -1
Cc1cccc(-n2c(N)cc(=O)nc2SCC(=O)Nc2ccc(F)cc2)c1C | 0.36
COc1ccc(C)cc1NS(=O)(=O)c1ccc2c(c1)[C@H]1C=CC[C@H]1[C@@H](c1cccc(Cl)c1)N2 | -1.3
COc1ccc(Cl)cc1C(=O)N1CCC2OCc3cnnn3C2C1 (stereo not given) | -0.74
Cc1cc(NC(=O)N2CCCC(C(=O)c3ccccn3)C2)n(C)n1 (stereo not given) | -1.1
CC(C)CN(CCNC(=O)c1cc(-c2cccs2)nc2ccccc12)CC(C)C | 0.19
CCn1c(N)nc2cc(C(=O)NCCCc3nc(C)c(C)s3)cnc21 | 1.9
C=Cc1ccc(C(=O)N2CC3CN(C4CCCC4)C[C@]3(C(=O)O)C2)cc1 (stereo not given in full) | -1.3
Cc1ccc(C)c(N2CCN(C(=O)C3CCCN(Cc4nc(-c5cccc(Cl)c5)oc4C)C3)CC2)c1 (stereo not given) | -1
Cc1ccc(CNC(=O)c2ccc(CS(=O)(=O)c3ccccc3C)o2)cc1 | -0.68
Cc1cc(NC(=O)Cc2ccccc2)cc(-c2nc3ccccc3o2)c1O | -2.1
Cc1c[nH]c(C(=O)N2CCN(Cc3ccccn3)C3CS(=O)(=O)CC32)c1 (stereo not given) | -0.15
CCOC(=O)c1sc2ncn(CC(=O)Nc3ccc(F)cc3F)c(=O)c2c1C | -1
CC(C)C[C@@H](NC(=O)[C@H](Cc1ccccc1)NC(=O)c1cnccn1)B(O)O | -0.45
CCCOc1cccc(C(=O)Nc2cc(-c3ccccc3)no2)c1 | 0.37
CCOC(=O)c1ccc(NC(=O)C(C)N(c2ccc(OCC)cc2)S(C)(=O)=O)cc1 (stereo not given) | -1.9
CCCCNc1nc2c(c(=O)n(Cc3ccccc3)c(=O)n2C)n1C | -2.6
COc1cccc(NC(=O)CSc2ncc(S(=O)(=O)c3ccc(C)c(C)c3)c(=O)[nH]2)c1 | -0.4
O=C(c1ccc2c(c1)N(Cc1ccc(F)cc1)C(=O)c1ccccc1S2(=O)=O)N1CCCCCC1 | -1.1
Cc1ccc(C(=O)c2cn(Cc3ccc(Cl)cc3)c3nc(C)ccc3c2=O)cc1 | -2.7
Cn1cnnc1CC1CCN(c2cnc3ccccc3n2)CC1 | -0.64
COCCCN1C(=O)N(c2ccccc2)C(=O)C1CC(=O)Nc1ccc(F)cc1 (stereo not given) | -1.6
O=S1(=O)CC2C(C1)N(Cc1ccccc1Cl)CCN2CCO (stereo not given) | -1.3
Cc1ccc(N2CCN(C(=O)c3cn(C)c4ccc(S(=O)(=O)N(C)C5CCCCC5)cc4c3=O)CC2C)cc1 (stereo not given) | -1.6
O=c1[nH]c2ccccc2c(=O)n1-c1ccc(Cl)c(Cl)c1 | 1
Cc1ccc2cc(CN3CCN(c4ccc(Cl)nn4)CC3)c(=O)[nH]c2c1 | 1.6
CC(=O)Nc1ccc(C(=O)N2CCC3(CC2)CNC(=O)C3)c(C)c1 | -0.66
CCOC(=O)c1ccc(-n2c(C)nc3c(cnn3-c3ccc(Cl)cc3)c2=O)cc1 | 0.01
COC1=CC(=O)C[C@@H](C)[C@]12Oc1c(Cl)c(OC)cc(OC)c1C2=O | -0.84
Cc1cn([C@H]2C[C@H](N=[N+]=[N-])[C@@H](CO)O2)c(=O)[nH]c1=O | -1.4&-2

These rows are one share of the data; count on the stated rates, not on these rows.
